# Screens from PubChem.
# CDC25B-CDK2 inh – primary biochemical HTRF screen for blockers of M-phase inducer phosphatase 2 binding to CDK2/cyclin A; P30305+P24941; AID 1259370, 2018; z-score (no concentration beside the values); actives 0.72% (n = 94,000); HTRF CDC25B-CDK2/CyclinA binding, anti-His/anti-Flag; hits give high values;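 note: score is relative to mean and SD of negative controls; strong numbers were not always called active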
# TAR Tat displ – TAR RNA-Tat peptide displacers, HIV-1, primary screen, biochemical, FRET, FAM/TAMRA-labeled Tat. HIV-1 TAR RNA, Tat peptide displacement FRET; hits give high values. z-score (test concentration not listed). actives 0.6% (n = 100,000);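 note: score is relative to mean and SD of negative controls; some compounds called inactive have numbers as strong as hits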
# An asterisk follows results filed as active; . = not tested or not shown.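 Rule for the calls: active = z-score from 3 up in half or more of its runs; inactive = the rest.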
# Start of the data: the first 17 entries, ahead of the listing:
SMILES,CDC25B-CDK2 inh,TAR Tat displ
CCc1nnc(NC(=O)CSc2nc3c(c(=O)n2-c2ccc(F)cc2)SC(C)C3)s1 (centres undefined),-0.4,1.8
CCn1c2ccccc2n2c(SCCOc3ccccc3)nnc12,0.78,0.5
CCCOc1ccc(N2C(=O)C3C4C=CC(C)(O4)C3C2=O)cc1 (centres undefined),-1.7,0.69
Cn1ccnc1CS(=O)(=O)c1cc(Cl)c(Oc2ccc([N+](=O)[O-])cc2Cl)c(Cl)c1,-0.65,.
O=C1CC(c2ccccc2)Nc2ccc3ccccc3c21 (centres undefined),-0.03,1.4
CCOC(=O)CN1C(=O)N(CC(=O)c2ccccc2)C(c2ccccc2)(c2ccccc2)C1=O,-1.8,.
CCOC(=O)CSc1nc2c(c(=O)n1CC1CCCC1)C1(CCCCC1)Cc1ccccc1-2,-2.9,.
CCCc1nc(Nc2ccccc2)[nH]c(=O)c1Br,-2,1.3
Cc1cc(NC(=O)c2cc3ccccc3c(=O)o2)no1,-3.4,-1.2
Cn1cnc2c1c(=O)n(Cc1ccccc1F)c(=O)n2C,-1.3,2.7
CCc1cc2c(cc3c(=O)n(CC(=O)N4CCC(C)CC4)nc(CC)n32)s1,-0.32,1.9
Cc1ccc(Cl)cc1NS(=O)(=O)c1ccc2c(c1)NC(=O)C(C)CS2 (centres undefined),.,0.37
Cc1cc(C)c2c(n1)SCC(=O)N2CC(=O)NC1CCCC1,-0.05,0.53
CCOc1c(NCc2cccs2)c(=O)c1=O,.,0.03
CS(=O)(=O)N(CC(=O)Nc1ccccc1C(F)(F)F)c1cccc(C(F)(F)F)c1,-1.4,.
COC(=O)c1c(C)oc2ccc(NS(=O)(=O)c3cc(OC)ccc3OC)cc12,-1.5,0.5
CCn1c2c(c(=O)[nH]c1=O)C(c1ccc(C(C)(C)C)cc1)C1=C(N2)c2ccccc2C1=O (centres undefined),0.33,0.09

# The list itself, previewed entries included:
SMILES,CDC25B-CDK2 inh,TAR Tat displ
CCc1nnc(NC(=O)CSc2nc3c(c(=O)n2-c2ccc(F)cc2)SC(C)C3)s1 (centres undefined),-0.4,1.8
CCn1c2ccccc2n2c(SCCOc3ccccc3)nnc12,0.78,0.5
CCCOc1ccc(N2C(=O)C3C4C=CC(C)(O4)C3C2=O)cc1 (centres undefined),-1.7,0.69
Cn1ccnc1CS(=O)(=O)c1cc(Cl)c(Oc2ccc([N+](=O)[O-])cc2Cl)c(Cl)c1,-0.65,.
O=C1CC(c2ccccc2)Nc2ccc3ccccc3c21 (centres undefined),-0.03,1.4
CCOC(=O)CN1C(=O)N(CC(=O)c2ccccc2)C(c2ccccc2)(c2ccccc2)C1=O,-1.8,.
CCOC(=O)CSc1nc2c(c(=O)n1CC1CCCC1)C1(CCCCC1)Cc1ccccc1-2,-2.9,.
CCCc1nc(Nc2ccccc2)[nH]c(=O)c1Br,-2,1.3
Cc1cc(NC(=O)c2cc3ccccc3c(=O)o2)no1,-3.4,-1.2
Cn1cnc2c1c(=O)n(Cc1ccccc1F)c(=O)n2C,-1.3,2.7
CCc1cc2c(cc3c(=O)n(CC(=O)N4CCC(C)CC4)nc(CC)n32)s1,-0.32,1.9
Cc1ccc(Cl)cc1NS(=O)(=O)c1ccc2c(c1)NC(=O)C(C)CS2 (centres undefined),.,0.37
Cc1cc(C)c2c(n1)SCC(=O)N2CC(=O)NC1CCCC1,-0.05,0.53
CCOc1c(NCc2cccs2)c(=O)c1=O,.,0.03
CS(=O)(=O)N(CC(=O)Nc1ccccc1C(F)(F)F)c1cccc(C(F)(F)F)c1,-1.4,.
COC(=O)c1c(C)oc2ccc(NS(=O)(=O)c3cc(OC)ccc3OC)cc12,-1.5,0.5
CCn1c2c(c(=O)[nH]c1=O)C(c1ccc(C(C)(C)C)cc1)C1=C(N2)c2ccccc2C1=O (centres undefined),0.33,0.09
Brc1ccc2c(c1)CN(C1CCCCC1)CO2,-1.1,0.64
Cc1cccc(-c2nc3nc(C)cc(N4CCOCC4)n3n2)c1,-0.86,1.1
CCN(c1ccccc1)S(=O)(=O)c1ccc2c(c1)oc(=O)n2C,-1.9,.
O=S(=O)(c1ccc(Cl)cc1)N1CCCC(c2nc(-c3ccc(Br)cc3)no2)C1 (centres undefined),.,1.1
Cc1nn2c(=O)cc(CSc3nnc(NC(=O)c4ccccc4)s3)nc2s1,.,0.28
COc1ccc(OC)c(Nc2nc(N)c([N+](=O)[O-])c(OC)n2)c1,.,2.3
CCCCC(CC)CNS(=O)(=O)c1ccc(OCC)c2ncccc12 (centres undefined),2,0.23
O=C1CCSc2c1cccc2C(=O)N1CCCc2ccccc21,.,1.2
Cc1ccccc1NS(=O)(=O)c1ccc(N2CCCCS2(=O)=O)cc1,.,1.3
O=c1[nH]nc(/C=C/c2ccc(F)cc2)o1,-1.6,-0.5
N[C@H](Cc1ccccc1)C(=O)O,.,1.4
O=C(CSc1ncnc2sc3c(c12)CCC3)Nc1ccccc1C(F)(F)F,-4.4,.
Cn1ncc2c(Sc3cccc4ccccc34)ncnc21,-1.3,.
N/C(CN1CCCCC1)=N\S(=O)(=O)c1cc(Cl)cc(Cl)c1,-1.2,.
C=CCOC(=O)C1=C(C)Nc2nc(SCCC)[nH]c(=O)c2C1c1cccc(F)c1 (centres undefined),-0.09,1.2
Cc1cc(C)c(NC(=O)CSc2nc3c(c(=O)[nH]2)CCCC3)c(C)c1,-2.2,2
Cc1cn2c(=O)cc(COC(=O)c3ccc(F)cc3)nc2s1,.,0.91
O=C1C=CC(=O)N1C1CCN(Cc2ccccc2)CC1,-1.3,.
Cc1nn(CC(=O)NCCCN2CCCC2=O)c(=O)c2cc3sccc3n12,-1.3,.
S=C(S)OC1CC2CC1C1CCCC21 (centres undefined),-0.69,-0.46
C#CCN1C(=O)C(O)(CC(=O)c2ccc(-c3ccccc3)cc2)c2ccccc21 (centres undefined),-2,.
CCCCN(C)C(=O)C1CCCN(c2ncnc3onc(C)c23)C1 (centres undefined),.,1.9
COc1ccc2c(c1)-c1c(ssc1=S)C(C)(C)N2C(=O)CSc1nc(C)cc(C)n1,-1.4,.
CCCn1c2ccccc2c2cnn(CC(=O)Nc3ccc(Cl)cn3)c(=O)c21,.,0.04
CCC(=O)N1CCc2cc(Br)cc(S(=O)(=O)CCC(=O)NCc3cccs3)c21,1.1,.
O=C(c1cn[nH]c1C1CCNCC1)N1CCN(c2ccc(F)cc2)CC1,.,-1.1
N#CC1=C2SCN(c3ccc(F)cc3)CN2C(=O)CC1c1c(F)cccc1Cl (centres undefined),1.2,-0.67
CC(C)CNC(=O)COCc1cc(-c2cccs2)on1,.,1.7
Cc1c(C(=O)N2CCCC2)oc2ccc3c(c12)C(=O)CC1(CCCCC1)O3,-2.5,0.7
O=C(Nc1ccc2ccccc2n1)Nc1cccs1,-1.4,.
COc1ccc(-c2onc(C)c2C)cc1S(=O)(=O)NCc1ccc(Br)cc1,.,1.4
Cc1cccc(N2CC(=O)N/C2=N\c2nc(C)cc(C)n2)c1,-0.53,.
COc1ccccc1CSc1nc2ccccc2[nH]1,0.45,0.36

# More structures follow:
SMILES,CDC25B-CDK2 inh,TAR Tat displ
COCCn1c(C2CC(=O)N(c3cc(Cl)ccc3OC)C2)nc2ccccc21 (centres undefined),-1.4,-0.07
Cc1cc(C)nc(SCC(=O)Nc2cc(C)on2)n1,-0.42,1.9
O=C(O)c1ccc(Nc2nc(-c3ccc(Cl)cc3)cs2)cc1,-0.16,.
Nc1c(S(=O)(=O)c2ccc(Cl)cc2)cnc2cc(-c3ccccc3)nn12,0.23,.
COc1cccc(NS(=O)(=O)c2ccc3[nH]c4c(c3c2)CCCCC4)c1,.,3.5
CCC(C)NC(=O)c1ccc2c(=O)n(C(C)C)c3n[nH]c(=O)n3c2c1 (centres undefined),-1.2,0.66
CCC(C(=O)Nc1ccc2c(c1)OCO2)n1nc(C)c2sc3ccccc3c2c1=O (centres undefined),-2.1,1.2
COc1ccc(-n2c(SC)nc3sc4c(c3c2=O)CC(C(C)C)OC4)cc1 (centres undefined),-0.08,.
CC(=O)N1c2c(cc(Br)cc2S(=O)(=O)N2CCN(c3ccc(F)cc3)CC2)CC1C (centres undefined),1.1,1.8
O=S(=O)(CS(=O)(=O)Oc1ccc(Cl)cc1)Oc1ccc(Cl)cc1,-0.28,.
CCOC(=O)C1CCN(C(=O)CCc2nnc3ccc(N4CCC(C)CC4)nn23)CC1,.,0.19
Cc1cccc(C)c1N1C(=O)Nc2ccccc2S1(=O)=O,.,-1.6
O=S(=O)(Nc1ccc(F)cc1)c1ccc2[nH]c3c(c2c1)CCCC3,.,-6.3
O=c1ccc(-c2ccc(S(=O)(=O)N3CCc4ccccc4C3)s2)n[nH]1,.,-0.16
CCN(c1ccccc1)C1SC(=O)NC1=O (centres undefined),0.43,1.4
CCOC(=O)C1CCN(c2sccc2[N+](=O)[O-])CC1,-1.2,.
Cc1ccc(NS(=O)(=O)c2cc(/C=C/c3onc(C)c3[N+](=O)[O-])ccc2C)cc1,.,1.2
CC1CCN(CC(O)c2ccc3cc[nH]c3c2)CC1 (centres undefined),-1.4,0.73
O=C1CC(c2ccco2)CC2=C1C(c1ccccc1O)n1c(nc3ccccc31)N2 (centres undefined),-2.1,0.67
CCOC(=O)C1CCCN(C(=O)c2cc3ccc4cccnc4c3[nH]2)C1 (centres undefined),.,0.39
CCC(CC)C(=O)Nc1c2c(nn1-c1ccc(Cl)cc1)CSC2,-1,0.97
CN1CCN(CCCNC(=O)CN2C(=O)c3cccnc3Oc3ccc(Cl)cc32)CC1,.,2.3
CCOC(=O)CSc1ncn(-c2nc(C)cc(Oc3ccccc3)n2)n1,-0.11,2.6
CCc1ccc(-c2nc3c(c(=O)[nH]2)Cc2ccccc2O3)cc1,0.83,1.6
COc1cccc2c1OC(c1ccccc1Cl)N1N=C(c3cccnc3)CC21 (centres undefined),-1.3,.
Cc1cccc(NC(=O)Nc2c(C)[nH]c(=O)[nH]c2=O)c1C,-1.9,0.56
O=C(NCCC1=CCCCC1)c1[nH]nc2c1CSc1ccccc1-2,-0.96,-0.22
COc1ccc(Nc2nc(N)nc(CSc3nc4ccccc4s3)n2)cc1,0.29,0.02
O=[N+]([O-])c1ccc(-n2ccnc2)nc1-n1ccnc1,-0.46,3.8
Cc1ccc(C)c(CN2N=NC3C(=O)N(c4ccccc4)C(=O)C32)c1 (centres undefined),-1.4,-0.47
CC1N=C2c3ccccc3N=C(SCC(=O)Nc3ccccc3Cl)N2C1=O (centres undefined),.,0.91
CO[C@H](C(=O)[C@@H](O)[C@@H](C)O)[C@@H]1Cc2cc3cc(OC4CC(OC5CC(O)C(O)C(C)O5)C(O)C(C)O4)c(C)c(O)c3c(O)c2C(=O)[C@H]1OC1CC(OC2CC(OC3CC(C)(O)C(O)C(C)O3)C(O)C(C)O2)C(O)C(C)O1 (some centres undefined),.,0.2
Cc1ccc(S(=O)(=O)c2nnn3c2nc(N2CCCC2)c2sccc23)cc1,.,-0.09
C=C(C)Cn1c(SCC(=O)OCC)nc2sc3c(c2c1=O)CCCC3,-0.63,.
O=C(Nc1cccc(Cl)c1)C(=O)c1cn(CC(=O)N2CCCC2)c2ccccc12,.,2.1
CC(CCc1ccco1)NC(=O)CSc1cc(=O)n(C)c2ccccc12 (centres undefined),-0.48,0.52
Cc1ccccc1Nc1nc(C2(C)CC3(CC(COCC(C)C)OC3=O)C(=O)O2)cs1 (centres undefined),-0.46,.
Cc1ccc2[nH]cc(NC(=O)NCCCO)c(=O)c2c1,-1.2,0.62
CCOC(=O)c1c(NC(=O)CSc2nnc(C)c(=O)[nH]2)sc2c1CCCC2,-1.8,-0.49
Cc1ccc(-c2cn3cccnc3n2)cc1NC(=O)c1ccc(Br)cc1,-1,.
O=C1CC(c2ccccc2F)c2c(n[nH]c2-c2ccc(Cl)cc2)N1 (centres undefined),0.11,-1.6
COC(=O)c1ccc(S(=O)(=O)N2CCc3ccccc32)n1C,.,0.86
CS(=O)(=NC(=O)c1ncc(C(F)(F)F)cc1Cl)c1ccc(C(F)(F)F)cn1 (centres undefined),-1.8,.
NC(N)=NN=C1CCCCC1,-0.76,.
COc1cc(CCNc2ccc3nnc(-c4ccccc4)n3n2)cc(OC)c1OC,0.13,.
Cc1ccc(S(=O)(=O)N2CCC(C(N)=O)(N3CCCCC3)CC2)cc1,-2.3,.
CCc1nn(CC(=O)N2CC(C)CC(C)C2)c(=O)c2cc3sccc3n12 (centres undefined),-1.6,-1.3
Cc1cc2n(n1)CCC(=O)N2C(C)C(=O)NCCc1cccs1 (centres undefined),.,2.8
CCCCNC(=O)c1ccc(N2c3ccccc3CC2C)s1 (centres undefined),.,1.8
CCOC(=O)C1CCN(c2n[nH]c(=O)c3ccccc23)CC1,-1.4,-0.5

# Additional results:
SMILES,CDC25B-CDK2 inh,TAR Tat displ
CCCCCn1c(NCCO)nc2c1c(=O)[nH]c(=O)n2C,0.57,1.4
Clc1nccn2nc(-c3ccccc3)cc12,-1.1,1.2
CC(C)c1[nH]nc2c1C1(C(=O)Nc3ccccc31)C(C#N)=C(N)O2 (centres undefined),0.04,1.8
CN1CCN(CCNC(=O)c2cc(-c3cccnc3)nc3ccc(Br)cc23)CC1,.,-0.64
Cn1c(=O)c2c(-c3cccc(F)c3)c(NCCc3ccccc3)oc2n(C)c1=O,.,2.2
NC(=O)C1CCN(C(=O)CN(CC(=O)N2CCC(C(N)=O)CC2)Cc2ccco2)CC1,-1.3,2.6
CC1CCC(NC(=O)N(CCCl)N=O)CC1 (centres undefined),.,1.8
COc1ccc(-c2cc(-c3ccc(OC)c(OC)c3)n[nH]2)c(O)c1,0.37,.
CCOC(=O)c1cnc(SCCC(N)=O)nc1N,.,0.28
CCOc1ccc(C)cc1S(=O)(=O)n1ccnc1,0.2,0.91
CC(Sc1nc2ncccc2o1)C(=O)N(C)c1ccc(F)cc1 (centres undefined),.,-0.87
O=c1c(O)c(NCc2cccs2)c1=O,.,0.49
O=C(NCC1CCCO1)C1CCN(c2ccc(N3CCOCC3)nn2)CC1 (centres undefined),-2.5,.

# Not a hit list; any-hit rate near 0.94%.
